# Mtb hypoxia inh: PubChem AID 1159583; M. tuberculosis hypoxia-regulated fluorescent reporter, fluorescence; fluorescence inhibition, % (no concentration beside the values); 300,000 tested, 0.1% active;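 active means 35 to 45% if threefold the growth effect, above 45% if 1.5-fold the growth effect; inactive means the rest, general growth blockers included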;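 further: wells of about 50 µL received 100 nL stock; 0% = vehicle wells and 100% = reference inhibitor wells; whole bacteria with a GFP reporter of the hypoxia response; strong numbers were not always called active; many hits fall short of the cut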
# Sa ugtP lethal: growth inhibition of ugtP-null S. aureus, primary screen, RN4220 ugtP deletion, OD600; 16 h; some inactives read as strong as hits; growth inhibition, % (no concentration beside the values); 330,000 tested, 0.54% active;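 active means z-score under -3 and OD600 up to 0.15 on both plates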;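 further: plate controls were untreated wells for no effect and antibiotic for full effect; wells of about 80 µL received 100 nL stock; the first replicate is given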
# PrP UTR inh: inhibition of PrP 5' UTR reporter expression | cell-based PrP 5' UTR mRNA reporter, plate reader | inhibition, % (test concentration not listed) | 340,000 tested, 0.35% active;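 active means every replicate at 50% or more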;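 further: 0 = median of the neutral control wells; tested in H4 reporter cells; numbers are from one replicate; inactives centre near -14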
# Autofluor counter: compound fluorescence in toxin protease inhibitor counterscreen; compound autofluorescence counterscreen, microsphere flow cytometry; stronger effect = higher value; fluorescence intensity (concentration not given with the values); 360,000 tested, 3.1% active; AID 624483;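 active means at least 3 SD above the mean of all compounds, about 16000 in these data; inconclusive means too few beads counted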;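 further: 100 nL of 1 mM stock went into each well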
# BJeLR lethal: MLPCN primary cell-based screen for lethality selective to Ras in HRASV12 cells. BJeLR (HRASV12) viability, CellTiter-Glo ATP luminescence, 48 h; reference of the scale not given here. inhibition, % (concentration not given with the values). 300,000 tested, 0.17% active. AID 1554, 2009;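 active means replicate mean above 50%; inconclusive means above 50% but judged a plate artefact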;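 further: 50 nL library stock added to about 25 µL; numbers are from one replicate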
# RN4220 kill: growth inhibition of S. aureus RN4220, primary screen, OD600; inhibition, % (test concentration not listed); 330,000 tested, 0.33% active; 16 h;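 active means z-score of -3 or lower and OD600 up to 0.18 on both plates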;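 further: plate controls were untreated cells for no effect and reference antibiotic for full effect; stock transfer was 100 nL into about 80 µL; one replicate is shown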
# Mtb hypoxia inh growth: second read-out of Mtb hypoxia inh, no call of its own (marks repeat the call); growth inhibition, %; measured here: M. tuberculosis growth (absorbance);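 0% = vehicle and 100% = reference antibiotic; read after six days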
# * = called active by the depositor; ? = inconclusive; . = no result given; & = joins results of further samples. Outcome played no part in choosing rows; overall some 4% were active at least once.
SMILES,Mtb hypoxia inh,Mtb hypoxia inh growth,Sa ugtP lethal,PrP UTR inh,Autofluor counter,BJeLR lethal,RN4220 kill
O=C(CSc1nncn1-c1cccnc1)Nc1cccc(C(F)(F)F)c1,6,-1,0,-13,3605,0,5.7
Cc1ccc(S(=O)(=O)NCC(=O)OCC(=O)c2ccc(Br)s2)cc1,6,1,10,-4,3136,5,2.9
Cc1c(NC(=O)C(C)OC(=O)c2ncc(Cl)c(Cl)c2Cl)c(=O)n(-c2ccccc2)n1C (stereo not given),3,-10,1,-12,5025,-7,3.3
COc1ccc(NS(=O)(=O)c2cc(NC(=O)c3cnc(C)cn3)ccc2N2CCCCC2)cc1,-4,-3,-11,-27,2076,-6,8.5
Cc1cc(C(=O)N/N=C\C(Br)=C\c2ccccc2)c(C)o1,.,.,.,-34,4889,0,.
CC1(C)CCCN1CCC(C(N)=O)(c1ccccc1)c1ccccc1,15,7,1,-23,4297,.,6.1
COc1ccc(N2Cc3cccc(C(=O)N4CCN(C(=O)c5ccco5)CC4)c3C2=O)cc1,.,.,.,-6,5382,-4,.
Cc1csc2nc(CSc3ccc(Cl)cc3)cn12,.,.,55,-124,4646,3,-0.6
N#CCCn1nc(-c2ccc(Cl)cc2)cc1Nc1ccccc1NC(=O)C(F)(F)F,11,-1,-1,0,2561,-2,-0.8
C=CCNCCOCCOc1ccccc1-c1ccccc1,13,13,0,-24,1950,14,3.4
OC(c1cccc(Cl)c1)c1nccc2ccccc12 (stereo not given),5,3,5,-8,4405,-5,3.6
CCCN(CCC)CCCNc1ccc(C(=O)Nc2cccc(OC)c2)cc1[N+](=O)[O-],-4,14,-1,-11,3782,22,10
COc1cc2c(cc1OC)-c1cc(NC3CCCCCC3)nc(=O)n1CC2,8,-1,-25,3,8410,-4,-0.4
COCC(=O)N1CCC(Oc2ccc(C(=O)NCc3cc(C(C)C)no3)cc2)CC1,.,.,.,-22,5376,-2,.
COc1nccc(C(F)(F)F)c1C(=O)NC(=O)Nc1ccccc1,11,10,-3,-8,5302,-3,0.9
CN(C)C(=O)C[n+]1cccc(C=NO)c1,-8,-5,2,.,.,.,-1.8
CCN1C(=O)C(CC(=O)NCc2ccc(Cl)cc2)N(CC)C1=O (stereo not given),2,3,7,-16,20390*,-5,3.3
COc1ccccc1CC(N)=NOC(=O)C=Cc1ccccc1,6,8,-7,.,.,.,4.9
O=C(C1=CC(c2csc3ccccc23)CC(OCc2ccc(CO)cc2)O1)N1CCN(Cc2ccc3c(c2)OCO3)CC1 (stereo not given),3,14,9,.,.,.,2.7
O=C(O)C1CCCN1C(=O)NC1CCCCC1 (stereo not given),-5,0,3,-4,4394,4,-1.0
Cc1oc(-c2ccc(Cl)cc2)[n+]([O-])c1C,15,12,12,-14,3125,0,4.1
COc1cccc(CNn2cn[nH]c2=S)c1OCc1ccccc1,9,2,2,-19,1983,-2,5.5
COc1ccc(-n2nc(C(=O)O)c3ccccc3c2=O)cc1,14,5,1,-25,7500,-3,1.0
CCOC(=O)N1CCN(S(=O)(=O)c2cc(-c3nn4c(C)nnc4c4ccccc34)ccc2C)CC1,4,5,3,-14,2260,-3,-4.4
CC(=O)c1ccc(NC(=O)CSc2nc(Nc3ccccc3)nc(N3CCOCC3)n2)cc1,6,5,-6,-8,5616,-7,-0.1
# (list continues)
SMILES,Mtb hypoxia inh,Mtb hypoxia inh growth,Sa ugtP lethal,PrP UTR inh,Autofluor counter,BJeLR lethal,RN4220 kill
COc1ccccc1C(=O)NNC(=O)C(=O)NC(C)(C)C,-3,-17,1,-14,3928,2,-2.7
CCCN=C1NC(=O)C(CC(=O)NCCc2ccc(OC)c(OC)c2)S1 (stereo not given),2,2,5,7,2478,1,8.0
Cc1[nH][nH]c(=O)c1C(c1c(C)[nH][nH]c1=O)c1cn(Cc2ccc(Cl)c(Cl)c2)c2ccccc12,2,-4,88*,-13,11035,18,36
COc1cc(C)nc(Oc2ccc(OCCOc3ccc(C)cc3)nn2)n1,2,4,4,-8,3156,2,7.8
Cc1ccccc1OC(=O)C1C(c2ccccc2)C(C(=O)O)C1c1ccccc1 (stereo not given),4,-3,-12,-18,20251*,-3,15
O=c1c([N+](=O)[O-])c[nH]c2ccccc12,.,.,.,-19,2181,1,.
COC(=O)c1cc(Br)c(=O)n(-c2nccs2)c1,7,0,-1,-5,2806,-10,-7.0
O=C(O)c1cc(C=NO)ccc1OCc1ccccc1,8,11,-2,.,.,.,6.3
CCCCNc1nc2ccccc2nc1Cl,21,0,10,-7,1927,4,7.0
O=C(OCn1nnc2ccccc2c1=O)C12CC3CC(CC(O)(C3)C1)C2,16,4,-68,-13,4031,5,14
COc1ccc2c(CC(=O)OCC(=O)NC(N)=O)coc2c1,3,14,0,-14,3651,5,5.0
O=C(NCC(c1cccnc1)N1CCN(c2ccccc2F)CC1)c1cccc(Cl)c1 (stereo not given),-4,0,14,-12,3488,-1,24
Cc1ccc(C(=O)COC(=O)c2cn3ccccc3n2)cc1,3,10,12,-43,4841,10,1.9
CCN1C(=O)C2C(c3ccc(-c4ccc(F)cc4)cc3)N[C@@](Cc3ccccc3)(C(=O)OC)C2C1=O (stereo not given in full),6,13,-21,.,.,.,-2.4
CCN(C(=O)COC(=O)c1n[nH]c2ccccc12)c1ccccc1,6,-2,-2,-1,?,.,0.0
COc1ccccc1CNC(=O)CCN1C(=O)c2ccccc2C1=O,16,9,2,-18,3669,10,1.4
CC(C)c1csc(CN2CCN(Cc3ccccc3)C(CCO)C2)n1 (stereo not given),1,12,3,36,4246,5,6.8
COc1ccc(OC(C)C(=O)Nc2ccccc2F)cc1 (stereo not given),2,-2,-6,4,2586,-6,9.9
Cn1nc(C(F)(F)F)c(C=NOC(=O)c2ccccc2)c1SCc1ccccc1Cl,8,19,55,.,.,.,1.2
O=C(COC(=O)c1ccc(F)cc1)NCC1COc2ccccc2O1 (stereo not given),2,6,-4,-13,4175,.,-4.7
Cc1cc(C(C)(C)C)cc(C)c1S(=O)(=O)N1CC(=O)Nc2ccccc21,-18,5,4,5,3403,6,-0.9
CC1CCN(C(=O)C2CCN(C(=O)c3cc4sccc4n3Cc3ccc(F)cc3)CC2)CC1,-3,-3,-6,-13,6864,-2,-1.4
COc1ccc(Cc2nc3ccccc3n2CC(=O)NN=Cc2ccc(C)cc2O)cc1OC,-1,6,2,.,.,.,-0.4
O=C(NCC1CCOCC1)c1cc(COc2ccc(F)cc2F)on1,9,-2,2,-21,4619,-6,-0.2
CCOc1ccccc1N(CC(=O)Nc1ccc(C)cc1)S(C)(=O)=O,20,10,7,-14,3369,-8,4.7

# 5 compounds drawn at random from the list so far, as already listed:
SMILES,Mtb hypoxia inh,Mtb hypoxia inh growth,Sa ugtP lethal,PrP UTR inh,Autofluor counter,BJeLR lethal,RN4220 kill
COC(=O)c1cc(Br)c(=O)n(-c2nccs2)c1,7,0,-1,-5,2806,-10,-7.0
Cc1cc(C(C)(C)C)cc(C)c1S(=O)(=O)N1CC(=O)Nc2ccccc21,-18,5,4,5,3403,6,-0.9
O=C(NCC(c1cccnc1)N1CCN(c2ccccc2F)CC1)c1cccc(Cl)c1 (stereo not given),-4,0,14,-12,3488,-1,24
Cc1ccc(C(=O)COC(=O)c2cn3ccccc3n2)cc1,3,10,12,-43,4841,10,1.9
Cc1[nH][nH]c(=O)c1C(c1c(C)[nH][nH]c1=O)c1cn(Cc2ccc(Cl)c(Cl)c2)c2ccccc12,2,-4,88*,-13,11035,18,36

# More results follow.
SMILES,Mtb hypoxia inh,Mtb hypoxia inh growth,Sa ugtP lethal,PrP UTR inh,Autofluor counter,BJeLR lethal,RN4220 kill
Cc1[nH]nc(SCC(=O)N2CCCCC2)c1[N+](=O)[O-],12,9,-2,-30,9167,-9,4.0
COc1ccccc1NC(=O)C1=C(C)NC(=O)NC1c1ccccc1[N+](=O)[O-] (stereo not given),7,6,16,-40,4386,-9,1.1
O=C1C(Cc2ccccc2)NCCCCC(c2ccc(Cl)cc2)N1Cc1ccc(Cl)cc1 (stereo not given),16&13,6&12,12&-16,.,.,.,0.8&64
O=Cc1ccc(OC(=O)/C=C/c2ccccc2)cc1,1,-2,14,-9,4391,-6,5.3
CC(=O)C1=C(C)N2CCN=C2S1,11,4,1,-28,3173,-4,1.6
Cn1c(O)c(C=NCCCNC2CCCCC2)c(=O)n(C)c1=O,17,9,-4,-26,2836,-4,-8.1
CCN(CC)CCNC(CC(=O)Nc1ccc(Cl)cc1Cl)C(=O)O (stereo not given),.,.,6,-12,3556,0,5.1
CS(=O)(=O)c1ccc(C(=O)OCC(=O)c2ccc(Cl)s2)cc1,-2,7,3,-7,?,10,0.5
Cc1cccc(C(=O)N2CCCC(Nc3ccc(C)c(C)c3)C2)n1 (stereo not given),7,-1,0,-19,6410,13,1.6
CC(=NNC(=O)c1c(C)nc2ccccn12)c1ccc(C(C)(C)C)cc1,-2,18,2,.,.,.,0.1
CSCCC(NC(=O)COc1ccccc1)C(=O)N1CCN(c2ccccc2Cl)CC1 (stereo not given),9,9,4,-15,6189,0,7.8
COc1ccc2oc(-c3ccc(C)c(NC(=O)CSc4ccc(Cl)cc4)c3)nc2c1,6,4,-10,-28,11486,7,9.4
COC(=O)[C@@]12CCCN1[C@H](c1ccc(-c3ccc(Cl)c(Cl)c3)cc1)[C@H]1C(=O)N(C)C(=O)[C@H]12,-15,-7,-1,13,4216,7,-8.9
CN1CCN(C(=O)CSc2nc3ccc(NC(=O)c4ccccc4F)cc3s2)CC1,10,4,-4,-7,3940,-3,-1.1
CCOc1cc(/C=N/NC(=O)c2cccnc2)ccc1O,.,.,.,-12,3658,-1,.
CC(NC(=O)C1CCN(S(=O)(=O)c2ccc(Br)s2)CC1)c1ccccc1 (stereo not given),8,11,13,-26,4117,-9,-3.0
Cc1cc(C)n(-c2ccc(C(=O)OCn3nnc4ccccc4c3=O)cc2)n1,.,.,61,1,4546,21,-6.5
CN(CC(=O)Nc1ccc(Cl)cc1)CC(=O)Nc1cccc2ccccc12,1,-11,-6,3,6541,.,1.4
CCc1ccc(N2C(=O)NC(=O)/C(=C\c3cccn3CCOc3ccc(C(C)C)cc3)C2=O)cc1,0,7,5,-64,9321,-2,4.1
O=C(Nc1nnc(COc2ccccc2)s1)c1ccco1,.,.,5,3,3980,1,8.9
O=C(Nc1ccccc1C(=O)Nc1ccccn1)c1ccccc1F,8,18,3,-23,4072,9,9.0
Cc1cc(C)cc(NC(=O)C2CCN(C(=O)[C@@H]3Cc4ccccc4CN3)CC2)c1,0,-6,-6,-10,8378,-3,-0.3
COc1ccc(CCNC(=O)COC(=O)/C=C/c2cccc(F)c2)cc1,2,2,1,-14,5227,.,3.9
COc1ccc(N2CCN(C(=O)Cc3nn(C)c(=O)c4ccccc34)CC2)cc1,4,5,1,-18,4018,8,1.9
CCCN1CCC(=O)N([C@H](CSc2ccc(Br)cc2)Cc2ccccc2)CC1,.,.,.,-5,4292,-2,.
# Next section.
SMILES,Mtb hypoxia inh,Mtb hypoxia inh growth,Sa ugtP lethal,PrP UTR inh,Autofluor counter,BJeLR lethal,RN4220 kill
COC(=O)C1=C(c2ccccc2OCc2ccccc2)C[C@@H]2CC[C@H]1N2C(=O)NCCOc1ccccc1Cl,13,4,-8,3,4085,.,-22
COc1ccc(NC(=O)CCC(=O)c2cccs2)cc1S(=O)(=O)Nc1ccc(Cl)cc1,12,6,-5,-14,2422,10,-6.0
O=C(CCc1nc2ccccc2c(=O)[nH]1)NCc1ccco1,-3,8,-7,-14,3298,4,-1.2
Cn1c(=O)[nH]c(=O)c2c1nc(N1CCCCC1)n2C/C=N/NC(=O)c1cc(Br)ccc1O,.,.,.,-14,4384,-3,.
CCOC(=O)c1[nH]c(C)c(C(=O)N(C)Cc2ccccc2)c1C,3,2,-2,-1,18491*,-8,-1.9
CC(OC(=O)C1=COCCO1)C(=O)Nc1ccc(Oc2ccccc2)cc1 (stereo not given),11,11,4,-20,3741,1,-1.5
Cc1ccc(-c2ccnc(-c3ccc(O)cc3)n2)cc1,5,0,3,-61,3894,2,6.3
CCOC(=O)/C=c1\s/c(=C\c2c(OC)ccc3ccccc23)c(=O)n1CC(=O)NCC1CCCO1 (stereo not given),.,.,.,-22,16857*,-15,.
O=C(O)c1ccc(N2CCCCC2)cc1O,7,4,-2,1,4060,-5,11
O=C(CCn1cccc1)NCCc1ccc(Cl)cc1,.,.,3,-14,3059,-4,5.4
Cc1nc(SCC(=O)Nc2c(C)n(C)n(-c3ccccc3)c2=O)c2cnn(-c3ccccc3)c2n1,7,6,1,.,5382,.,6.4

# Bioassay records from PubChem.
